Calb biofilm kill: mixtures killing C. albicans biofilm; C. albicans biofilm persisters + clotrimazole, fluorescence viability; primary screen in compound mixtures of four per well; inhibition, % at 7.6 µM; 0.02% of 120,000 active; AID 1242;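 active = inhibition above 30.3% in the primary screen of four-compound pools, then above 30% when the compound was retested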;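 also: compounds exposed to preformed 24 h biofilms for 48 h; the number belongs to the whole pool; some results filed as inactive read as strong as hits; inactives centre near 12; 0% = biofilm with clotrimazole alone and 100% = kill control; retested singly at about 60 µM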
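Test system: C. albicans CAF4-2 wild-type biofilms; buffer or medium: RPMI/MOPS medium, pH 7.0; schedule: 24 h biofilm formation, then 48 h compound exposure, 37 °C; detection: Alamar Blue fluorescence; measure: percent inhibition of biofilm viability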
* = called active by the depositor.

Start of the data: the first six compounds, ahead of the listing:
no.	SMILES	Calb biofilm kill
1	OCCC1CN(Cc2cccc(C(F)(F)F)c2)CCN1Cc1ccccc1 (configuration not stated)	6.6
2	CC(=O)NC(CSC(CC(=O)c1ccco1)c1ccc(C)cc1)C(=O)O (configuration not stated)	6.3
3	OCCNc1nc(Nc2ccc(O)cc2)nc2ccccc12	9.2
4	Fc1ccc(CNC(=S)Nc2ccc(OC(F)F)cc2)cc1	13.5
5	CCCC(=O)Nc1sc2c(c1C#N)CCCCC2	12.6
6	CC(=O)Nc1ccc(NC(=S)NC(=O)c2oc3ccccc3c2C)cc1	16.3

All compounds of this part, repeating the preview:
no.	SMILES	Calb biofilm kill
1	OCCC1CN(Cc2cccc(C(F)(F)F)c2)CCN1Cc1ccccc1 (configuration not stated)	6.6
2	CC(=O)NC(CSC(CC(=O)c1ccco1)c1ccc(C)cc1)C(=O)O (configuration not stated)	6.3
3	OCCNc1nc(Nc2ccc(O)cc2)nc2ccccc12	9.2
4	Fc1ccc(CNC(=S)Nc2ccc(OC(F)F)cc2)cc1	13.5
5	CCCC(=O)Nc1sc2c(c1C#N)CCCCC2	12.6
6	CC(=O)Nc1ccc(NC(=S)NC(=O)c2oc3ccccc3c2C)cc1	16.3
7	COC(=O)N/N=C/c1cc(Cl)cc(Cl)c1OCc1ccc(F)cc1	-2.2
8	COc1ccc(C(=O)NCCc2nc3cc([N+](=O)[O-])ccc3n2C)cc1	16.6
9	CCOCCOC(=O)C(C)Oc1ccc(Oc2ncc(Cl)cc2Cl)cc1 (configuration not stated)	5.5
10	CC(C)C[C@H](NC(=O)Nc1ccc2c(c1)OCCO2)C(=O)O	30.6
11	CNc1ccc(/C=C/C(=O)c2ccc3c(c2)OCCO3)cc1[N+](=O)[O-]	18.1
12	COc1cc2c3c(c1)c(N=NC(N)=S)c(O)n3C(C)(C)C=C2C	12.8

Next part:
no.	SMILES	Calb biofilm kill
13	CCCNC(=O)COC(=O)c1cccnc1Nc1ccccc1F	15.2
14	COc1ccc(C2CC(=O)N(CC(=O)NCC3CCCO3)c3ccccc3S2)cc1 (configuration not stated)	18.4
15	COc1ccc(NC2=CC(=O)CC(c3ccccc3)C2)cc1 (configuration not stated)	20.1
16	CCOc1ncccc1C(=O)OCC(=O)c1cc(OC)c(OC)c(OC)c1	12.5
17	Cc1cccc(NC(=O)CSc2nncn2-c2ccccn2)c1	13.3
18	Cc1cc(/C=C(/C#N)c2nc3ccccc3[nH]2)c(C)n1-c1ccccc1C(=O)O	4.1
19	Cc1cc(=S)[nH]c(=S)[nH]1	-3.0
20	CC(=O)c1c(C)[nH]c(-c2ccccc2)nc1=S	16.2
21	COC(=O)c1c(C)[nH]c(C(=O)/C=C/c2ccc(C)cc2)c1C	7.6
22	Cc1ccc(NC(=O)/C(=C\c2cccs2)NC(=O)c2ccccc2)cc1	7.9
23	O=C(c1cccc(S(=O)(=O)Nc2cccc(C(F)(F)F)c2)c1)N1CCCCC1	14.1
24	O=C(NCC(=O)N(Cc1ccco1)C(C(=O)NC1CCCC1)c1cccnc1)c1ccco1 (configuration not stated)	9.3

(more compounds)
no.	SMILES	Calb biofilm kill
25	CCCN(CC1CC1)C(=S)Nc1ccc(Oc2ccccc2)cc1	9.3
26	CC(=O)Nc1ccc(S(=O)(=O)N2CCC(C(=O)O)CC2)cc1	5.9
27	COc1ccc(/C(C)=N/NC(=O)Cn2nc([N+](=O)[O-])cc2C)cc1	-1.2
28	CSc1nc(-c2ccccc2F)c(C#N)c(=O)n1C	17.4
29	COc1ccccc1C(=O)Oc1ccccc1C(=O)Nc1ccccc1	-0.5
30	O=C(/C=C/c1cccc([N+](=O)[O-])c1)N1CCOCC1	0.1
31	O=C(CSc1nc2scc(-c3ccccc3)c2c(=O)[nH]1)NC1CCCCC1	13.6
32	COc1ccc(-c2nc(=S)c3ccc4ccccc4c3[nH]2)cc1	11.3
33	CCCCCCCCNC(=O)/C(C#N)=C/c1ccc(SC)cc1	13.6
34	CC(C)(C)/C=N/NC(=O)C1CC1	24.5
35	c1ccc2c(NCCCN3CCOCC3)c3ccccc3nc2c1	-7.3
36	Cc1ccc(S(=O)(=O)ON2C(=O)c3ccccc3C2=O)c(C)c1	22.4

Following part.
no.	SMILES	Calb biofilm kill
37	Cc1ccc(/C=N/NC(=O)c2cccnc2)s1	20.1
38	COc1ccc(-c2noc(CSc3nc4sc(C)c(C)c4c(=O)n3-c3ccccc3)n2)cc1	12.4
39	COc1ccc2ccccc2c1/C=N/N1C(=O)CSC1=S	16.4
40	COCc1ccc(CN2CCCC(CCC(=O)NCc3ccc(C)o3)C2)o1 (configuration not stated)	12.3
41	CCC(C)NC(=O)Cn1cnc2sc(C)c(S(=O)(=O)N3CCN(c4ncccn4)CC3)c2c1=O (configuration not stated)	1.6
42	COc1cccc(NC(=S)N(Cc2ccco2)C(C)c2ccco2)c1 (configuration not stated)	14.7
43	COc1ccc(C2Nc3ccccc3C(=O)N2c2ccccc2)cc1CSc1ccccn1 (configuration not stated)	7.9
44	CC1=CC(=O)c2ccccc2C1=O	10.2
45	CCOc1ccc(CCNC(=O)CSc2cc(=O)n(CC)c3ccccc23)cc1OCC	12.7
46	CCCCNC(=S)N/N=C/c1sccc1C	3.8
47	N#CC1(c2ccccc2)CCC(=O)N1Cc1ccccc1 (configuration not stated)	12.0
48	Cc1cc(C(=O)N/N=C/c2ccc[nH]2)no1	10.3

(continued)
no.	SMILES	Calb biofilm kill
49	N[C@@H](Cc1ccc(O)cc1)c1nnc([C@H](CO)NC(=O)C2CCNCC2)o1	15.3
50	O=C(Nc1ccc2ncccc2c1)c1ccccc1Cl	2.9
51	COC(=O)c1ccc(NC(=O)Nc2ccc(OC)cc2)cc1	4.9
52	COC(=O)COc1ccc2cccc(-n3cnnn3)c2c1	10.2
53	CCCn1nnc(NC(=O)/C=C/c2ccccc2)n1	9.3
54	Cc1cc(C)c(NC(=O)C(=O)NCc2ccco2)c(C)c1	15.4
55	O=C(CCc1nnc(-c2ccc3c(c2)OCO3)o1)NC(c1cccnc1)C(F)(F)F (configuration not stated)	15.9
56	O=C(CN1CCN(C(c2ccccc2)c2ccccc2)CC1)Nc1ccc(N2CCOCC2)cc1	9.2
57	CCCN(CCC)C(=O)c1cc2c(=O)[nH]c3ccc(C)cc3c2s1	17.5
58	CCC1(C)Cc2ccccc2-c2nc(NCCO)n(-c3ccccc3)c(=O)c21 (configuration not stated)	16.9
59	Cc1sc2nc(-c3cccnc3)nc(Cl)c2c1-c1ccccc1	16.5
60	O=C(Nc1cccnc1)c1cc([N+](=O)[O-])ccc1Cl	12.7

Continuation:
no.	SMILES	Calb biofilm kill
61	Cc1csc2ncnc(NC3CCN(Cc4ccccc4)CC3)c12	8.4
62	COc1cccc(OC)c1C1=NC(C)(C)CO1	21.7
63	O=C(C1CCCN(S(=O)(=O)c2cccc3nonc23)C1)N1CCN(c2ccccc2Cl)CC1 (configuration not stated)	11.1
64	CCc1cccc(NC(=O)CN(C)S(=O)(=O)c2cccs2)c1	2.5
65	O=C(COC(=O)C1COc2ccccc2O1)Nc1cccc(S(=O)(=O)N2CCCCC2)c1 (configuration not stated)	2.2
66	CCC(=O)Nc1cccc(NC(=O)c2cccc([N+](=O)[O-])c2C)c1	15.8
67	O=[N+]([O-])c1ccc(O)c(C(C#Cc2ccccc2)N2CCOCC2)c1 (configuration not stated)	25.0
68	COC(=O)Cn1c2[n+](c3ccccc31)CC(O)CS2 (configuration not stated)	4.3
69	COc1ccc(C[C@H]2CN3C(=NC[C@@H]3Cc3ccccc3)N2CCNC(=O)CCC2CCCCC2)cc1	17.7
70	COC(=O)Cn1c(=NC(=O)c2cccc(OC)c2)sc2cc(OC)ccc21	14.2
71	COc1ccccc1N1CCN(CC(=O)NCCc2ccc(S(N)(=O)=O)cc2)CC1	7.8
72	CCOC(=O)C1(CCOc2ccccc2)CCN(Cc2ccncc2)CC1	14.2

The list continues:
no.	SMILES	Calb biofilm kill
73	Cc1cccc(Sc2ccc([N+](=O)[O-])cn2)c1	7.7
74	CCN(CC)CC(=O)Nc1sc2c(c1C(=O)c1ccccc1OC)CCC2	25.5
75	Cc1cc(Cl)c(OCCOCCN2CCCC(C)C2)c(Br)c1 (configuration not stated)	12.2
76	O=C(CSc1nc(-c2ccco2)cc(C(F)(F)F)n1)N1CCN(c2ccc(Cl)cc2)CC1	8.7
77	CC(C)N1CCN(Cc2cccn2-c2nccs2)CC1CCO (configuration not stated)	15.4
78	N/C(=N\OC(=O)c1cccc(Cl)c1)c1ccccn1	8.6
79	O=C(O)c1ccc(NCCc2ccc(Cl)cc2)c([N+](=O)[O-])c1	17.1
80	CCCCCn1c(CN2CCN(C(=O)c3ccco3)CC2)nc2c1c(=O)n(C)c(=O)n2C	23.9
81	CCOc1cc(/C=N/n2cnnc2)ccc1OS(=O)(=O)c1ccccc1	9.7
82	CCC(=O)Nc1nnc(C)s1	12.3
83	S=C(Nc1ccc2nsnc2c1)N1CCCCC1	8.3
84	COc1cc(C(=O)NCCN2C(=O)S/C(=C\c3ccc(F)cc3)C2=O)ccc1OCC(=O)N1CCOCC1	12.9

(continued)
no.	SMILES	Calb biofilm kill
85	O=C1c2ccccc2NC2(CCCC2)N1N=C1CCCC1	5.6
86	CC(C)C1Nc2ccc(S(=O)(=O)N3CCOCC3)cc2NC1=O (configuration not stated)	7.3
87	Cc1ccc(CNC(=O)C2COc3ccccc3O2)cc1 (configuration not stated)	6.0
88	Nc1nc(SCC(=O)c2cccs2)n[nH]1	13.5
89	COc1cc(OC)c(NC(=S)Nc2cc(Cl)cc(Cl)c2)cc1Cl	12.1
90	COCCN=c1scc(-c2cccs2)n1/N=C/c1ccc(O)c(O)c1O	15.1
91	CC(C)(C)CN1CCNC(=O)C1CC(=O)N1CCN(c2ccccc2)CC1 (configuration not stated)	23.6
92	O=C(O)c1ccc(NCc2nc3ccccc3n2CCOc2ccccc2Cl)cc1	17.6
93	Cn1c(O)c(N=NC(=O)c2ccco2)c2ccccc21	14.5
94	Nc1nc(N2CCCCC2)c(C=O)c(N2CCCCC2)n1	-2.1
95	Cc1c([N+](=O)[O-])cc(C(=O)NCc2ccc(F)cc2)cc1[N+](=O)[O-]	15.4
96	CCN(CC(=O)NC(C)C)C(=O)Cc1ccc(C)c(C)c1	5.3

Next part:
no.	SMILES	Calb biofilm kill
97	C=C(C)C1CC=C(C)/C(=N/NC(=O)c2ccoc2C)C1 (configuration not stated)	14.3
98	CC(C)c1ccccc1-n1c(SCc2cc(=O)oc3ccc4ccccc4c23)nnc1-c1cccnc1	18.5
99	COc1cc(NC(=O)c2ccccc2F)c(OC)cc1NC(=O)CN1CCOCC1	18.0
100	O=C(Cc1ccc(Cl)cc1Cl)OCC(=O)N1CCN(C(=O)c2ccco2)CC1	9.8
101	COc1cccc(NC(=S)N(CCCN2CCCC2)Cc2cccn2Cc2ccc(Cl)cc2)c1	10.6
102	Cc1cc(N2CCOCC2)nc(SCC(=O)OCc2ccccc2)n1	5.7
103	Cc1ccnc(NC(=O)COC(=O)C23CC4CC(CC(C4)C2)C3)n1	9.4
104	CC(C)(C)c1[nH]nc2c1C(c1ccco1)C(C#N)=C(N)O2 (configuration not stated)	14.6
105	COc1ccc(OC)c(NC(=O)CSc2nncc3ccc(OC)c(OC)c23)c1	12.1
106	Cc1c2c(n3c(nc4ccccc43)c1C#N)N(c1ccccc1)CC2	13.2
107	Cc1c(Br)c([N+](=O)[O-])nn1CC(=O)Nc1ccc(Cc2ccncc2)cc1	15.2
108	Cc1cccc(NC(=O)CSc2nnc(CNC(=O)c3ccc(S(=O)(=O)N(C)C)cc3)n2-c2ccccc2)c1	11.4

(list continues)
no.	SMILES	Calb biofilm kill
109	COc1cccc(CC(=O)N2CCN(c3ccccc3[N+](=O)[O-])CC2)c1	21.3
110	O=C(c1ccc2ccccc2c1)C1CCCN(C(=O)c2cnccn2)C1 (configuration not stated)	26.7
111	CC1=CN2C(=N)/C(=C/c3ccc(Sc4ccc(C)cc4)o3)C(=O)N=C2S1	9.1
112	CCN(CC)S(=O)(=O)c1cccc(NC(=O)c2ccccc2Br)c1	6.9
113	Cc1cccc(C)c1NC(=O)CN(C)c1ccc(C(F)(F)F)cn1	15.3
114	C/C(=N\NC(=O)c1ccc([N+](=O)[O-])cc1)c1cccc([N+](=O)[O-])c1	15.2
115	O=C(NN1C(=O)/C(=C/c2cccs2)SC1=S)c1cccnc1	13.8
116	CCOc1cccc(/C=C/c2ccc3ccccc3n2)c1OC(C)=O	3.3
117	Cc1ccccc1OCc1nc2ccccc2c(=O)n1/N=C/c1c[nH]c2ccccc12	12.5
118	Cn1nnnc1SCC(=O)Nc1ccccc1C(N)=O	10.5
119	Nc1nc(N)c(N=Nc2ccc(C(=O)O)cc2)c(N)n1	17.6
120	CCOC(=O)c1ccc(NC(=O)N2CC(C)OC(C)C2)cc1 (configuration not stated)	14.0

Continued.
no.	SMILES	Calb biofilm kill
121	C/C(=N\NC(=O)Cc1cc(=O)[nH][nH]1)c1cccc([N+](=O)[O-])c1	-10.1
122	COc1ccc(OCCNC(=O)/C=C/c2ccccc2)cc1	10.9
123	Cc1c(C(=O)NCCSCc2ccccc2)cccc1[N+](=O)[O-]	4.0
124	COC(=O)[C@@H]1CCCN1C(=O)CCc1nnc(CCC2CCCCC2)o1	7.4
125	COc1ccc(NC(=S)NC(=O)c2ccccc2Cl)cc1	4.5
126	O=C(CNCc1ccccc1Cl)Nc1ccccc1N1CCCCC1	6.0
127	COc1ccccc1C(=O)C1CCCN(C(=O)CCc2ccccn2)C1 (configuration not stated)	13.0
128	O=C(Nc1cccc(Cl)c1)NC1CC2CCC(C1)N2Cc1ccco1 (configuration not stated)	11.3
129	CC1=NNC(=O)C1CCC(=O)N/N=C\c1ccc(Cl)c(Cl)c1 (configuration not stated)	2.9

High-throughput results from PubChem BioAssay.

Not all compounds are listed; rates above refer to the full screens.
